# Bioassay records from PubChem BioAssay.
# AmpC nodet inh: AmpC beta-lactamase inhibition, detergent-free assay; AmpC nitrocefin hydrolysis, absorbance 480 nm, no detergent; potencies from a single point are estimates; P00811; Potency, µM (series often up to 28.7 µM), without a hit: at the highest dose activity change, negative = inhibition; actives 1.8% (n = 71,000); active = falling curve, for most hits resting on a single point; inconclusive = weak or doubtful change; inactive = flat or rising curve; also: % of control where 0% means no effect; about half of the hits show no inhibition at the top dose; a quarter of the inactives give rising signals
# Target sequence (P00811 whole entry, looked up): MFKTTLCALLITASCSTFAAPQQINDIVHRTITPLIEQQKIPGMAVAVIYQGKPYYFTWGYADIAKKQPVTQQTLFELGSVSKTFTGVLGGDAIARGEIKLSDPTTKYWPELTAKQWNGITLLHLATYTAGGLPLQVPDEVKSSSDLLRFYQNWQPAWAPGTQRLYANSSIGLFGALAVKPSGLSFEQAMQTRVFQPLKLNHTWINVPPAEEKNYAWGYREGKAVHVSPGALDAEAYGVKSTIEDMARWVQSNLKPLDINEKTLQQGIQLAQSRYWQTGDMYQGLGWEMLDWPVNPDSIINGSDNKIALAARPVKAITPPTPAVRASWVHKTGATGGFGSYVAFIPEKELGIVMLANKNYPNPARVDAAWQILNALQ
#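 AmpC, 20 mM phosphate pH 7.0; 15 min cpd preinc, RT; start with nitrocefin (800 uM stock); A480 kinetic read, 20 s intervals, 4 min. No-enzyme wells = negative control.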
# Active calls of the source: *; ! = not active in a repeat; [ ] = remark or other dose. Potency is read from the fitted curve at half-maximal effect. The list is partial; the hit share may differ from the screen's.
SMILES,AmpC nodet inh
Cc1ccc(NC(=O)Cn2c(C)cc(C)c(C#N)c2=O)c(Cl)c1,1%
C=CCSc1nc2c(c(=O)[nH]c(=O)n2C)n1C/C=C(/C)Cl,6%
COC(=O)c1ccccc1C(=O)OC,-2%
CCOC(=O)N1CCN(S(=O)(=O)c2ccc(C)c(C)c2C)CC1,63%
CCNc1nnc(-c2ccccc2OC)s1,12%
C=C1CC[C@@H]2[C@](C)(CC[C@@H](O)[C@]2(C)CO)[C@@H]1C/C=C1/C(=O)OC[C@H]1O,3%
COc1cccc(Nc2ncc3ncc(=O)n(CCc4ccccc4)c3n2)c1,9%
Cc1csc(NC(=O)Cc2nn(C)c(=O)c3ccccc23)n1,-1%
CCOC(=O)COn1c(=O)c[n+]([O-])c2ccccc21,2%
Cn1c(NCc2cc(Br)ccc2O)nc2ccccc21,-14%
Cc1ccsc1C(=O)OCC(=O)NCc1ccc2c(c1)OCO2,2%
Cc1c(C(=O)NCC2CCCO2)oc2ccc(S(=O)(=O)N3CCCC3)cc12 (centres undefined),33%
CCNc1ncc2nc(-c3ccccc3)c(=O)n(CCc3ccccc3)c2n1,5%
COc1ccc(C(c2nnnn2Cc2ccccc2)N2CCN(C(=O)c3ccco3)CC2)cc1OC (centres undefined),74%
O=S(=O)(Cc1ccccc1)N1CCN(Cc2ccc3c(c2)OCO3)CC1,13%
COc1ccc(-c2nc3cnc(N4CCNCC4)nc3n(C)c2=O)cc1,56%
COCCN(C(=O)c1csnn1)C(C(=O)NC1CCCCC1)c1sccc1C (centres undefined),21%
CCOC(=O)C1CCCN(C(=O)CCNS(=O)(=O)c2ccc3c(c2)CCC(=O)N3)C1 (centres undefined),1%
O=C1C(Cl)=C(NCC2CCCO2)C(=O)N1C1CCCCC1 (centres undefined),9%
Cn1nnnc1Sc1nc(-c2cccnc2)nc2ccccc12,-5%
Cc1cnc(CNc2cc(-c3ccc(C(=O)N(C)C)cc3)ncn2)cn1,12%
CC(C)NC(=O)N1CC[C@@]2(CCCN(S(=O)(=O)c3ccccc3)C2)C1,26%
O=c1cc(CN2CCOCC2)c2c(ccc3ccccc32)o1,-14%
CC1Cc2ccccc2N1C(=O)C1CCN(S(=O)(=O)c2cccs2)CC1 (centres undefined),8%
CCn1nc(C)c(NC(=O)CCCSc2nc(-c3ccco3)cc(C(F)(F)F)n2)c1C,112%
COc1ccc(CN(Cc2cc3cc4c(cc3[nH]c2=O)OCO4)C(=O)NC2CCCCC2)cc1,7%
CCOC(=O)N1CCC(NC(=O)Cn2cc3c(n2)CCCC3)CC1,26%
CCOC(=O)c1c(C)n(C)c2ccc(O)c(CN3CCC(C)CC3)c12,14%
COc1ccc2c(C)cc(SCC#N)nc2c1,6%
CCOc1ccc(-n2c(=O)[nH]cc(C(=O)N3CCc4ccccc43)c2=O)cc1,3%
Cn1c(NC(=O)c2cccc(Cn3cc(Cl)cn3)c2)nc2ccccc21,-4%
COc1ccc(/C(O)=C2/C(=O)C(=O)N(CCN(C)C)C2c2ccc(F)cc2)cc1Cl (centres undefined),10%
O=C1CC(c2cc3c(cc2Br)OCO3)C2=C(CCCC2=O)N1 (centres undefined),-8%
CN1CCC2(CC1)CCN(S(=O)(=O)c1ccccc1)CC2,10%
CCNC(=O)CN(C1CCCCC1)S(=O)(=O)c1ccc(F)cc1,19%
CCOC(=O)C1=C(CN2CCSCC2)NC(=O)NC1c1cc(C)ccc1C (centres undefined),18%
Cc1cc2occ(CC(=O)O)c2cc1C,-2%
CCOC(=O)C1CCN(Cc2ccccc2C(F)(F)F)CC1,17%
COC(=O)Cn1nc(-c2ccccc2)c2ccccc2c1=O,18%
CNc1oc(-c2ccco2)nc1C#N,-8%
O=C(O)c1ccc(COc2ccccc2Cl)cc1,-14%
Cc1nc(NC(CC(C)C)C(=O)O)c2nc(C)oc2n1 (centres undefined),2%
CC(=O)c1c(C)c[nH]c1C,-9%
C=C(C)Cn1c(SCC#N)nc2ccccc2c1=O,-7%
COCC(C)NC(=O)NC(=O)c1ccc(Cl)cc1 (centres undefined),-4%
CC1(C)CC(=O)C=C(Nc2ccccc2NC(=O)c2cnccn2)C1,-3%
CN1CCN(CCCNC(=O)Cn2nc(-c3ccccc3)ccc2=O)CC1,-5%
COC(=O)c1ccc(CSc2nnc(CNC(=O)c3cccs3)o2)o1,-8%
CCOC(=O)c1cnn(-c2ccccn2)c1N,-22%
CSc1nc(N)nc(SCC(=O)c2ccc(C)cc2)c1C#N,-19%
# Next results
SMILES,AmpC nodet inh
CCn1nc(C(=O)NCCc2ccc(S(N)(=O)=O)cc2)c2ccccc2c1=O,-10%
COC(=O)c1cc(N2C(=O)C3C(C2=O)C2(C)C=CC3(C)O2)ccc1Cl (centres undefined),-24%
O=C(C1CCN(S(=O)(=O)N2CCOCC2)CC1)N1CCN(c2ccccc2)CC1,42%
C=CCn1c(N)c(C(=O)OCCC)c2nc3ccccc3nc21,14%
CC(C)C(=O)NCCn1ccc2ccccc21,6%
CC1(C)C(=O)OC(C(=O)c2ccccc2)C(C)(C)C1=O (centres undefined),10%
[O-][N+]12CCN(CC1)c1ccccc12,-19%
CCOC(=O)Cn1cnc2sc3c(c2c1=O)CCC3,-6%
O=C(c1c(F)cccc1F)N1CCN(c2ccccc2F)CC1,2%
O=c1c(-c2nc3ccccc3o2)c2oc3ccccc3n2c2ccccc12,48%

# Quoted at random: seven compounds from above.
SMILES,AmpC nodet inh
CCOC(=O)COn1c(=O)c[n+]([O-])c2ccccc21,2%
C=C1CC[C@@H]2[C@](C)(CC[C@@H](O)[C@]2(C)CO)[C@@H]1C/C=C1/C(=O)OC[C@H]1O,3%
Cc1cnc(CNc2cc(-c3ccc(C(=O)N(C)C)cc3)ncn2)cn1,12%
COC(=O)Cn1nc(-c2ccccc2)c2ccccc2c1=O,18%
COc1cccc(Nc2ncc3ncc(=O)n(CCc4ccccc4)c3n2)c1,9%
CCOC(=O)c1c(C)n(C)c2ccc(O)c(CN3CCC(C)CC3)c12,14%
CCn1nc(C(=O)NCCc2ccc(S(N)(=O)=O)cc2)c2ccccc2c1=O,-10%

# Other records.
SMILES,AmpC nodet inh
CCCS(=O)(=O)N1CCCC(C(=O)NCCCN(C)c2ccccc2)C1 (centres undefined),56%
O=c1cc(-c2ccc(O)c(O)c2)oc2cc(O)cc(O)c12,0.5µM*!
O=S(=O)(c1ccc(S(=O)(=O)N(Cc2ccc(F)cc2)C2CCCC2)cc1)N1CCCC1,9%
CCCN(CCC)S(=O)(=O)c1ccc2c(c1)CCCN2C(C)=O,40%
O=C(Cc1ccccc1)N[C@H](c1ccccc1)P(=O)(O)CO,-4%
CCOC(=O)C1Cc2c([nH]c3ccccc23)CN1 (centres undefined),1%
CN(C)S(=O)(=O)N1CCN(C(=O)N2CCCCC2)CC1,-6%
O=C(CSc1ccccn1)c1ccc2c(c1)OCO2,2%
CCCc1cc(=O)n2[nH]cnc2n1,7%
CC(=O)NCCNc1ncnc2ccc(-c3ccc(C(=O)N(C)C)cc3)cc12,7%
COCC(C)n1c(C)cc(C(=O)COC(=O)c2c(C)nn(-c3ccccc3)c2C)c1C (centres undefined),131%
C=CCNC(=O)c1sc(=S)n(-c2ccc(C(=O)OCC)cc2)c1N,28%
O=c1[nH]c(N2CCOCC2)nc2c1CCCC2,-11%
COc1ccc(-c2nc(C#N)c(NC(C)c3ccccc3)o2)cc1OC (centres undefined),95%
O=C(c1cccnc1)N1CCN(Cc2ccc3c(c2)OCO3)CC1,-16%
Cc1ccc(S(=O)(=O)NC2(C(F)(F)F)NC(=O)N(C)C2=O)cc1 (centres undefined),-9%
CC(Sc1nnc(N)s1)c1ccccc1Cl (centres undefined),-8%
CCN(CC)CCCN1C(=O)C(O)=C(C(=O)c2ccc(C)o2)C1c1cccs1 (centres undefined),-4%
NCC(=O)Nc1ccccc1,-7%[5.75 µM]
Cc1ccc(NC(=O)CS(=O)(=O)c2c[nH]c3ccccc23)c(C)c1,4%

# Compounds above that contain bromine (two):
SMILES,AmpC nodet inh
Cn1c(NCc2cc(Br)ccc2O)nc2ccccc21,-14%
O=C1CC(c2cc3c(cc2Br)OCO3)C2=C(CCCC2=O)N1 (centres undefined),-8%

# Next part
SMILES,AmpC nodet inh
CC(C)NC(=O)N1CC[C@@]2(CCCN(S(C)(=O)=O)C2)C1,88%
CCOc1ccc(Oc2nc(Nc3ccc(C)cc3)nc(N(C)C)n2)nn1,103%
Cc1ccc(Cn2c(Sc3nccc(C)n3)nc3c2c(=O)[nH]c(=O)n3C)cc1,20%
Cc1c(C(=O)NC2=NCCS2)oc2ccccc12,48%
Cc1cc(C)c(S(=O)(=O)Nc2nnc(C)s2)c(C)c1,-6%
CCc1nnc(SCC(=O)Nc2ccc(C(C)=O)cc2)nc1CC,-5%
CCC1C(O)=C(c2ccccn2)C(=N)N1c1ccccc1 (centres undefined),1%
Cc1cc(Cl)ccc1OCC(=O)Nn1c(C)ccc1C,42%
C(#CCN1CCOCC1)COCc1ccccc1,-3%
CC(C)C(NC(=O)c1cccc(S(=O)(=O)N2CCOCC2)c1)C(=O)NCCc1ccccn1 (centres undefined),0%
CCn1nc(C(=O)OCC(=O)N2CCc3ccccc32)c2ccccc2c1=O,108%
O=C(CSc1ncccc1-c1nc2ccccc2[nH]1)N1CCN(c2ccccc2F)CC1,19%
CCCC[C@H]1C[C@@H]1[C@@H]1N(C(C)=O)[C@H](c2cccc(OC)c2)CC12CC2,104%
CCC(C)NC(=O)c1c(C)cc(=O)oc1C (centres undefined),-18%
COc1ccc(CC(=O)Nc2cccc(-c3nnc(-c4cccc(C)c4)o3)c2)cc1OC,108%
COc1ccc(NC(=O)N2CCCC3(CCN(C(=O)c4cc(C(F)(F)F)cc(C(F)(F)F)c4)CC3)C2)cc1,108%
CN(C)S(=O)(=O)c1ccc(C(=O)N2CCC(c3nc4ccccc4o3)CC2)cc1,81%
CCN=C=NCCCN(C)C,-18%[5.75 µM]
Cn1c(=O)c2c(nc(SCC(=O)N3c4ccccc4CCc4ccccc43)n2C)n(C)c1=O,80%
O=C(O)CS(=O)(=O)C(c1ccccc1)c1ccccc1,5%[5.75 µM]
COc1ccccc1OC(C)C(=O)O (centres undefined),-11%
CC(=O)N1CCN(c2ccc(S(=O)(=O)N3CCCCC3)cn2)CC1,-11%
CCC(=O)N1CCc2cc(S(=O)(=O)N3CCc4ccccc43)ccc21,51%
COc1ccccc1CNC(=O)C1CCN(S(=O)(=O)c2c(C)noc2C)CC1,24%
COc1ccc(OC)c(NC(=O)CSc2nnc(CCCO)n2-c2ccccc2)c1,64%
COc1ccc(Oc2ncc3nc(-c4ccc(F)cc4)c(=O)n(Cc4cccs4)c3n2)cc1,7%
CCOC(=O)/C=C(\C)Sc1cc(=O)oc2ccccc12,6%
O=C(O)C1C2C=CC(C2)C1C(=O)Nc1cccc(F)c1 (centres undefined),4%
Nc1nsnc1C(=O)NCCO,-5%
Cc1cc(C)nc(SCCC(=O)N(C)C)n1,1%
COc1cc2c(C(=O)N3CCN(C4CCCCC4)CC3)cn(CC(C)C)c(=O)c2cc1OC,92%
O=C(Nc1ccn(-c2ccccc2)n1)c1ccc(S(=O)(=O)N2CCCCCC2)cc1,-12%
Cc1ccc(Cl)cc1N1CCN(C(=O)C2CCN(S(=O)(=O)c3c(C)nn(C)c3C)CC2)CC1,121%
Nc1ccccc1-c1nc2ccccc2[nH]1,-8%
COc1ccc(S(=O)(=O)N2CCN(C(=O)NCc3ccccc3)CC2)cc1,0%
CCOc1ccc(CNc2ccc3c(c2)ncn3C)cc1,43%
CC(C)CCC1(CCN)C(=O)NC(=O)NC1=O,3%[5.75 µM]
O=C1c2ccccc2C(=O)c2c1ccc(C(=O)O)c2-c1ccc2ccccc2c1,-19%[5.75 µM]
COc1ccccc1N1CCN(CC(O)COc2ccc3c(C)cc(=O)oc3c2)CC1 (centres undefined),65%
OCCNc1nc2ccc(Cl)cc2[nH]1,8%
Cc1cccc(OCCC(=O)Nc2ccc(S(=O)(=O)N3CCCC3)cc2)c1,-12%
O=C(Cc1c[nH]c2ccccc12)N1CCc2ccccc21,-11%
Cc1ccc(C)n1NC(=O)c1ccco1,-12%
COc1ccc2cc(C)c(SCC(=O)Nc3cc(C)on3)nc2c1,-10%
OC[C@@H]1O[C@@H](n2cnc3cncnc32)[C@@H](O)[C@H]1O,3%
CCc1ccc(NC2=NC(C(=O)c3ccccc3)CC(=O)N2)cc1 (centres undefined),12%
O=C(CSc1nc2ccccc2o1)NCc1n[nH]c(=O)c2ccccc12,3%
CN(C(=O)c1coc(=O)c2ccccc12)c1ccc(F)cc1,8%
O=C(O)CC(c1ccccc1)n1cccc1 (centres undefined),-3%
COC(=O)c1cn(NC(=O)c2ccc3c(c2)OCO3)c(=O)c2ccccc12,-15%

# An excerpt of these results, with tabs:
smiles	AmpC nodet inh
COc1ccc2cc(C)c(SCC(=O)Nc3cc(C)on3)nc2c1	-10%
O=C(CSc1nc2ccccc2o1)NCc1n[nH]c(=O)c2ccccc12	3%
Cc1cccc(OCCC(=O)Nc2ccc(S(=O)(=O)N3CCCC3)cc2)c1	-12%
O=C(O)CC(c1ccccc1)n1cccc1 (centres undefined)	-3%
COC(=O)c1cn(NC(=O)c2ccc3c(c2)OCO3)c(=O)c2ccccc12	-15%

# Remaining list, next part
SMILES,AmpC nodet inh
Nc1cc(C(=O)N2CCCC2)cc(C(=O)N2CCCC2)c1,8%
COc1ccc(NC(=O)C2CCC(=O)N2S(=O)(=O)c2ccc(C)cc2)c(OC)c1 (centres undefined),42%
Cc1cc(C)c(Cn2c(=O)n(CCCC(=O)NCc3ccco3)c(=O)c3ccccc32)c(C)c1,-2%
O=C(C1CCC1)N1CCN(Cc2ccccc2)CC1,-14%
C[N@+]1(CCC(=O)c2ccccc2)CC[C@H]2CC[C@H](C2)C1,1%[5.75 µM]
COc1cc2c(OC)cccc2cc1C(=O)O,6%
NC(=O)C1CCN(C(=O)CSCc2ccccc2Cl)CC1,8%
COCCNc1ncncc1-c1ccccc1OC,5%
COc1ccccc1-n1c(SCC(=O)Nc2nnc(C)s2)nc2c(c1=O)SCC2,7%
